Bioassay records from PubChem BioAssay.
FGF22 binding = FGF22 (human) thermal shift binding; Q9HCT0; recombinant FGF22 thermal shift, SYPRO orange fluorescence; percent of sucrose octasulfate shift, DMSO zero; calls only at 9.99 µM; actives 1.5% (n = 340,000);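 active = melting point raised past a set limit in the mean and every replicate; inconclusive = no clear call; three in four hits are not shown here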
Ecoli growth = inhibitors of Escherichia coli growth. OD600, 23 h; stronger effect = lower value. OD600 absorbance (test concentration not listed). actives 0.21% (n = 330,000);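 active = OD600 absorbance below the run mean of sample wells minus 3.6 SD, in any replicate, cut at about 0.56 in these data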;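 also: stock transfer was 300 nL into about 60 µL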
RanGTP-Impb inh = disruptors of Ran-importin-beta complex formation – biochemical, FRET, CFP-Ran, YFP-importin-beta, homogeneous, primary screen. cell-free CFP-Ran/YFP-importin-beta FRET ratio. inhibition, % (test concentration not listed). actives 1.1% (n = 300,000);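 active = most replicates above 15%; inconclusive = exactly half above 15%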;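 also: 0% = DMSO wells and 100% = Ran loaded with GDP instead of GTP; wells of about 40 µL received 100 nL stock; the first replicate is given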
HNF4A DNA FP = change in binding of human HNF4 alpha to DNA. P41235. HNF4a-FITC DNA binding, fluorescence polarization, 1 h. activity change, % at 10 µM. actives 0.3% (n = 360,000). AID 1224865; in the data active = activity change above about 30%, passing the limit was not always enough;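 also: controls were the assay level and a saturating level of protein; the project sought stronger binding though the title names inhibitors; some compounds called inactive have numbers as strong as hits; positive values seem to mean higher polarization but the record does not say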
Target sequence (P41235 whole entry, looked up): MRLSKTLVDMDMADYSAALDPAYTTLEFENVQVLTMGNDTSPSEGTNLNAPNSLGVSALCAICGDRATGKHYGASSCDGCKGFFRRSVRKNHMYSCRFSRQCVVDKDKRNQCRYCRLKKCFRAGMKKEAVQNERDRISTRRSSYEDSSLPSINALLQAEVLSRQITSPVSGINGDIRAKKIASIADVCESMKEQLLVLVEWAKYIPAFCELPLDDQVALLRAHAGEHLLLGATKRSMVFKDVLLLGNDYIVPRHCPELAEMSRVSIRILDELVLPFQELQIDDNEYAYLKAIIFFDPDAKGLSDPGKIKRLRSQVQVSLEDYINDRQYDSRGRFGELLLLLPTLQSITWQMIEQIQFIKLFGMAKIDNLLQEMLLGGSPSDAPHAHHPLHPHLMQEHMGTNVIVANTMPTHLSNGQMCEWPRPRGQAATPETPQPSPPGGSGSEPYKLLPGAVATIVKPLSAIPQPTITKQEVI
Vif A3G = HIV-1 Vif–A3G interaction blockers – biochemical, TR-FRET, GST-Vif 1-94, biotin-A3G peptide, dose response retest, primary screen (AID 1117319); actives 0.57% (n = 260,000); inhibition, %, or IC50 in µM where a hit was titrated; TR-FRET GST-Vif / biotin-A3G peptide binding; higher % means a stronger effect; test concentration not given here; strong numbers were not always called active;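 active = above the screen mean plus three standard deviations and confirmed in dose response; inconclusive = results disagree or hit not tested in dose response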;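 also: Vif residues 1-94 fused to GST binding biotinylated APOBEC3G peptide 110-148; 0% = full assay without inhibitor and 100% = GST in place of GST-Vif; retest series ran down from 100 µM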
AF4-AF9 inh = blocks AF4 peptide binding to human AF9; P42568; AlphaScreen, biotin-AF4 peptide binding to FLAG-AF9; inhibition, % at 10 µM; actives 0.47% (n = 350,000);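 active = every replicate reaching a set inhibition limit, whatever the replicate mean, cut at about 25% in these data; inconclusive = mean inhibition reaches that limit but some replicates miss it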;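 also: 0% = plate neutral control median and 100% = total signal loss; the record names both 10 and 1 µM as test concentration; the first replicate is given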
Target sequence (P42568 whole entry, looked up): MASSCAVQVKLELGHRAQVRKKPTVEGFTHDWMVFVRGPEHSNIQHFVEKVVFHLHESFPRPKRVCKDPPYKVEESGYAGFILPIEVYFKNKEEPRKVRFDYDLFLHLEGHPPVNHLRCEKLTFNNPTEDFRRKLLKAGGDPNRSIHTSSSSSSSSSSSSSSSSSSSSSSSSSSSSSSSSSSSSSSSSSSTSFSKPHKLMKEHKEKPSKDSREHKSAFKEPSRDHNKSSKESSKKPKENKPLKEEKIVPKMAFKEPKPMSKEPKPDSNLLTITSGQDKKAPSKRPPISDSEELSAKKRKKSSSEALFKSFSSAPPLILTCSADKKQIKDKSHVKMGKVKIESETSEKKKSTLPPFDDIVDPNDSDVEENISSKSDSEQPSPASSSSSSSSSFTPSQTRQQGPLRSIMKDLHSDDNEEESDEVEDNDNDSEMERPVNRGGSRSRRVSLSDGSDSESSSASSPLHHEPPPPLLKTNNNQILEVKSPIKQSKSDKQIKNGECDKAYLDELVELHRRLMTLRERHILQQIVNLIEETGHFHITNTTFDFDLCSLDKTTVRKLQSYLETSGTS
UCH37 inh = human UCH37 deubiquitinating enzyme inhibition; inhibition, % (test concentration not listed); actives 0.33% (n = 330,000); purified proteasome/UCH37, Ub-AMC cleavage fluorescence;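 active = mean of two replicates above 20%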;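 also: 0% = compound-free wells with enzyme and 100% = wells lacking proteasome; stock transfer was 100 nL into about 20 µL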
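System: Proteasome-associated human UCH37 deubiquitinase; Input: 0.15 nM proteasome in added enzyme buffer; Also added: Ub-AMC substrate from 1 µM stock; Incubation: 30 min compound-proteasome preincubation then 25 min substrate reaction, room temperature; Detection: fluorescence, ex 355 nm, em 460 nm; Read-out: % inhibition of Ub-AMC cleavage fluorescence; Benchmarks: no-proteasome and no-compound wells.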
* marks the source's active call; other numbers are inactive results; i = inactive; ? = inconclusive; · = not tested or not shown; & = joins results of further samples. Only part of the results is shown; the hit share may differ from the screen's.

FGF22 binding,Ecoli growth,RanGTP-Impb inh,HNF4A DNA FP,Vif A3G,AF4-AF9 inh,UCH37 inh,canonical_smiles
·,0.68,-2.6,-0.1,30%,·,5.8,COCc1c(C(=O)OCC(=O)c2c(N)n(CC(C)C)c(=O)n(C)c2=O)oc2ccccc12
·,0.71,0.5,-2.8,29%,·,-0.5,COc1ccc(C2CC(=O)C3=C(C2)Nc2ncnn2C3c2ccccc2)cc1 (centres undefined)
i,0.7,-0.5,-3.2,·,-1.5,-0.5,CN(C(=O)c1ccccc1Cl)c1ccccc1C(=O)NCCc1ccccc1
i,·,·,-2.3,·,-2.4&-0.8&0.5,·,C[C@H]1CN([C@@H](C)CO)C(=O)CCCn2nncc2CO[C@H]1CN(C)C(=O)Cc1ccccc1
i,0.65,-0.5,-1.2,0%,-2.7,0.8,O=C(CS(=O)(=O)c1ccc(F)cc1)Nc1nccs1
·,0.7,0.5,-5.5,71%,·,4.3,COc1cc(-c2n[nH]c(=O)o2)cc(OC)c1OC
·,0.71,0.5,1.6,9%,·,4.9,CCOC(=O)c1nn(-c2ccc(C)c(C)c2)c(=O)c2c(N)scc12
i,0.7,2.2,-0.3,·,-1.4,0.8,COc1ccc(-n2nc3c(c2NC(=O)COc2ccccc2)CS(=O)C3)cc1 (centres undefined)
·,0.73,3.9,2.8,-5%,·,1.0,COc1cccc(-c2nc(-c3ccccn3)no2)c1OC
i,0.7,4.0,2.1,25%,-0.8,-6.4,Oc1csc(Cc2nc(-c3ccc(Br)cc3)cs2)n1
i,0.72,-2.5,-2.0,-1%,-0.5,2.7,Cc1cc2oc(C(=O)NCc3ccccc3)cc(=O)c2cc1C
i,0.65,·,1.5,-1%,-4.4,-0.6,COc1ccc(C)cc1S(=O)(=O)NNc1nc(C)cc(C)n1
i,0.64,-0.7,-2.2,0%,-0.7,2.3,Cc1nn(-c2ccc(N3CCCCC3)nn2)c(C)c1CCC(=O)Nc1ccccc1F
i,·,·,1.1,-8%,-0.2,·,CC(=O)N1CC2(CC(c3ccccc3C(F)(F)F)=NO2)CN1c1ccc(Cl)cc1 (centres undefined)
i,0.7,-0.9,2.4,·,-4.4,-1.0,CCOC(=O)C1CCCN(C(=O)c2ccc3nc(-c4ccc(OC)c(OC)c4)c(-c4ccc(OC)c(OC)c4)nc3c2)C1 (centres undefined)
i,0.68,3.5,-0.8,-2%,-2.4,-1.0,CC(=O)Cn1cnc2c(cnn2-c2ccc(C)c(C)c2)c1=O
·,0.72,3.0,-0.8,4%,·,4.3,Cn1c(=O)c2c(nc(N3CCCCCC3)n2CC(O)COc2ccc(Cl)cc2)n(C)c1=O (centres undefined)
·,0.71,7.4,-0.4,-4%,·,1.3,CCCNC(=O)NC(=O)COc1c(F)c(F)cc(F)c1F
i,0.69,1.1,-1.1,·,-2.8,0.5,Cc1cccc(C)c1NC(=O)c1c(O)c2ccccc2[nH]c1=O
·,·,-6.2,-1.1,21%,·,·,COc1c(/C=N/Nc2ccc([N+](=O)[O-])cc2[N+](=O)[O-])c(C)nn1-c1ccccc1
i,0.65,-4.4,0.0,·,3.6,1.6,Cc1nc(C)c(-c2csc(Nc3ccc(C(=O)O)c(O)c3)n2)s1
i,0.69,0.7,0.7,·,-3.1,3.9,Cc1cc(NC(=O)CSc2nnc(C)n2C)no1
·,0.65,6.0,-0.9,-3%,·,4.5,N#CC1(c2ccccc2)CCCN1C(=O)c1ccc(Br)cc1 (centres undefined)
i,0.67,-5.5,2.8,·,-0.4,4.2,COc1ccc(N(CC(=O)Nc2cc(Cl)ccc2OC)S(=O)(=O)c2c(C)[nH]c(=O)[nH]c2=O)cc1
i,·,1.4,3.8,-6%,-2.8,·,Cc1ccc(S(=O)(=O)/N=C(\CCl)N2CCOCC2)cc1
i,0.72,-0.9,-1.4,·,0.6,5.8,CCOC(=O)C1(Cc2cccc(Cl)c2)CCCN(C(=O)c2cnn(CC)c2)C1 (centres undefined)
·,0.67,-2.2,-0.5,13%,·,2.6,CCCCC(=O)Nc1ccc(C)c(O)c1
·,·,-1.7,3.3,6%,·,·,Cc1c(Cl)c([N+](=O)[O-])nn1Cc1ccc(C(=O)N/N=C\c2cc(Cl)ccc2O)o1
i,0.71,·,3.4,9%,-6.9,3.5,CCOC(=O)C1=C(C)Nc2ccccc2N/C1=N\S(=O)(=O)c1cccc(Cl)c1
i,0.55*,·,-0.5,-1%,-2.2,-1.0,Cc1nnc(SCC2=C(C(=O)O)N3C(=O)C(NC(=O)COc4ccc(F)cc4)C3SC2)s1 (centres undefined)
i,0.69,·,2.3,-4%,0.5,0.2,Cc1cc(Cl)ccc1OCC(=O)Nc1cccc(S(=O)(=O)N2CCCC2)c1
·,0.67,1.2,0.0,1%,·,-0.5,Cc1ccc(NC(=O)NCc2ccc3c(c2)OCO3)cc1
i,·,3.5,4.2,·,-5.4,·,Cc1ccc(/C=N/NC(=O)c2cccc(S(=O)(=O)Nc3ccccc3Cl)c2)o1
i,0.71,-1.1,1.7,-8%,0.1,2.8,CN(c1ccccc1)S(=O)(=O)c1cccc(NC(=O)COC(=O)C2CCCCC2)c1
i,·,1.3,1.7,·,1.7,·,COc1ccc(NS(=O)(=O)c2cccc(NC(=O)c3ccc(Cl)nc3)c2)cc1
i,0.67,0.2,0.7,-6%,0.5,1.4,CC1CCCC(NC(=O)CSc2ccc(F)cc2)C1C (centres undefined)
·,0.67,-1.8,-2.5,-2%,·,-2.1,COc1ccc(N2CC(C(=O)OCC(=O)c3ccccc3)CC2=O)cc1 (centres undefined)
i,0.67,0.8,-2.1,·,-0.1,4.1,CC(C)c1cccc(C(C)C)c1NC(=O)CN1CCCC1
i,0.67,53*,1.2,1%,-0.6,0.5,O=C1C/C(=C\c2c(F)cccc2Cl)N2CCC1CC2
·,0.72,2.2,2.6,-1%,·,3.4,Cn1c(NCc2ccccc2)nc2c1c(=O)n(Cc1ccccc1)c(=O)n2C

Complete entries from above. Order of screens: FGF22 binding, Ecoli growth, RanGTP-Impb inh, HNF4A DNA FP, Vif A3G, AF4-AF9 inh, UCH37 inh
`Cc1ccc(NC(=O)NCc2ccc3c(c2)OCO3)cc1` across the screens: ·, 0.67, 1.2, 0.0, 1%, ·, -0.5
`CC1CCCC(NC(=O)CSc2ccc(F)cc2)C1C` (centres undefined) across the screens: i, 0.67, 0.2, 0.7, -6%, 0.5, 1.4

Quoted at random: two records from the list, in no set order.
FGF22 binding,Ecoli growth,RanGTP-Impb inh,HNF4A DNA FP,Vif A3G,AF4-AF9 inh,UCH37 inh,canonical_smiles
·,0.67,-1.8,-2.5,-2%,·,-2.1,COc1ccc(N2CC(C(=O)OCC(=O)c3ccccc3)CC2=O)cc1 (centres undefined)
i,·,1.3,1.7,·,1.7,·,COc1ccc(NS(=O)(=O)c2cccc(NC(=O)c3ccc(Cl)nc3)c2)cc1

The results go on.
FGF22 binding,Ecoli growth,RanGTP-Impb inh,HNF4A DNA FP,Vif A3G,AF4-AF9 inh,UCH37 inh,canonical_smiles
i,0.69,-4.5,-2.3,-1%,-3.6,-1.6,O=C(Oc1ccc(F)cc1)c1ccc2c(=O)n3c(nc2c1)CCC3
i,·,·,-2.8,·,2.2,·,O=C1OCCOC2CCCc3oc(-c4ccccc4)c1c32 (centres undefined)
i,0.7,-3.0,0.6,-10%,10,1.7,CCOC(=O)CC(NS(=O)(=O)c1ccc(OC)c(C)c1)c1cccc([N+](=O)[O-])c1 (centres undefined)
i,0.67,1.7,0.7,5%,-0.5,4.7,COc1ccc(CCNC(=O)Cn2nnc(C(=O)Nc3cc(C)ccc3C)c2N)cc1OC
i,0.68,·,5.7,-12%,-0.7,0.5,CC(OC(=O)c1ccccc1C(=O)N(C)C1CCCCC1)C(=O)NC1(C#N)CCCCC1 (centres undefined)
i,·,·,2.4,3%,2.5,·,CSC[C@H]1CN(Cc2ccccc2)C(=O)[C@@H]1CC(=O)Nc1ccccc1
i,0.65,-1.7,-3.0,·,2.0,4.7,O=C(Nc1nnc(C2=COCCO2)o1)c1cccc(C(F)(F)F)c1
·,0.69,4.0,-1.8,-3%,·,-0.3,Cc1ccc(-c2nnn(CC(=O)N(c3ccccc3F)C(CC(C)C)C(=O)NCC3CCCO3)n2)cc1 (centres undefined)
i,0.68,1.1,-0.3,-1%,-0.9,3.7,Cc1cc(C(=O)Nc2c(F)c(F)c(F)c(F)c2F)n(-c2ccccc2)n1
i,·,·,0.9,·,4.2,·,C#Cc1ccc(NC(=O)C2(C)CCN2C(=O)Cc2ccc(C(C)C)cc2)cc1 (centres undefined)
·,0.65,?,-2.4,-4%,·,-0.6,CCN(CC)c1nc2ccccc2nc1-n1nc(C)cc1C
i,0.72,-1.2,1.3,2%,4.4,2.0,COc1ccc(C(C#N)N2CCC(c3ccccc3)=N2)cc1OC (centres undefined)
·,0.67,1.5,2.9,-11%,·,0.2,CCOC(=O)Cn1nc(-c2ccc(F)cc2)cc(Cc2ccccc2)c1=O
i,0.68,?,-2.2,·,-1.3,4.3,COc1cccc(NC(=O)C2CCN(S(=O)(=O)c3ccc4c(c3)NC(=O)CO4)CC2)c1
i,0.8,-1.7,-5.2,·,-9.6,3.3,CN1CCN(S(=O)(=O)c2ccc3c(c2)C(C)(C)C(=O)N3C)CC1
i,0.72,0.0,3.2,1%,0.3,2.5,CCOC(=O)Cn1c(=O)oc2cc(S(=O)(=O)N3CCCc4ccccc43)ccc21
i,0.69,12,-5.2,6%,3.6,1.4,CCOC(=O)c1c(N2C(=O)CC(Sc3ccccc3C(=O)O)C2=O)sc2c1CCCC2 (centres undefined)
·,0.66,0.5,4.3,-2%,·,5.8,S=C(c1ccc(-c2ccc(Cl)c(Cl)c2)o1)N1CCOCC1
·,0.76,5.3,14,2%,·,-8.7,CCOC(=O)c1ccc(-c2ccc(C(=O)Nc3cccnc3)o2)cc1
i,·,·,2.5,·,-1.9,·,CCOC(=O)C1(C)CCN1C(=O)c1cc(-c2ccc(Cl)cc2)oc1C (centres undefined)
i,0.7,·,6.6,26%,0.9,6.4,CCN(CC)c1ccc(C(=O)NNC(=O)CCNC(=O)c2ccccc2)cc1
·,0.63,-1.8,-0.7,-3%,4.3,1.8,CN(Cc1cnccn1)Cc1ccccc1OCC(O)CN1CCc2ccccc2C1 (centres undefined)
i,·,·,-1.9,-2%,-5.6,·,COc1ccc(N(CC(=O)Nc2ccc(S(=O)(=O)N3CCOCC3)cc2)S(C)(=O)=O)cc1OC
i,0.69,-1.9,0.3,·,-0.5,2.6,COc1ccc(CNC(=O)CS(=O)(=O)Cc2nc(-c3ccc(OC)cc3)oc2C)cc1
·,0.68,2.4,0.1,-3%,·,2.6,O=c1c2ccccc2ncn1-c1cccc(Cl)c1
i,0.64,-1.7,0.3,7%,0.6,0.4,CCN(CC)CC#CCC(O)(c1ccccc1)c1ccccc1
·,0.66,-3.8,1.3,-8%,·,0.4,O=c1c2ccccc2nc(-c2ccccc2)n1Cc1ccc(Cl)cc1
